# Compound activity from PubChem BioAssay.
# MgrA DNA FP = S. aureus MgrA activity modulators, primary screen, biochemical, S. aureus Newman, fluorescence polarization; MgrA-DNA binding; inhibition, %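 (about 10 µg/mL by stock and volumes)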; 84,000 tested, 0.13% active;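 active = above 50% in either of two replicates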;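 also: 0% = protein plus DNA without compound and 100% = DNA alone without protein; higher means less MgrA bound to DNA so lower polarization; one replicate is shown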
# S aureus helic = inhibitors of S. aureus replicative helicase, primary screen, biochemical, fluorescence unwinding readout; replicative DNA helicase (DnaC/DnaB), Staphylococcus aureus; purified S. aureus helicase, fluorescence unwinding assay; about half of the hits fall short of the stated cut; inhibition, %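 (tested at about 80 µM)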; 120,000 tested, 0.05% active;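 active = both duplicates at 50% or more, or one of them with a favoured structure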;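 also: 0% = mean of negative control wells and 100% = mean of positive control wells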
# Starred values were filed as active, the others as inactive; . = no result given.
# Below each compound – S aureus helic | MgrA DNA FP
O=C(CCC1CCCCC1)Nc1ccc(O)cc1
  9 | -1.0
O=C(Cn1nc2c3c(cccc3c1=O)-c1ccccc1-2)c1ccccc1
  3 | .
COCCOC(=O)c1sc(C)c(C(=O)OC)c1N
  -14 | .
O=C(Nc1ccc2c(c1)OCCO2)C1Cc2ccccc2N1C(=O)OCc1ccccc1 (stereo unspecified)
  . | 4.9
CC1(C)CC(=O)C(N=Nc2ccc(SC(F)F)cc2)=C(O)C1
  -19 | .
COCC(C)NC(=O)c1cc2c(C)cc(C)cc2[nH]1 (stereo unspecified)
  . | -0.8
CC(C1CC1)n1nccc1NC(=O)c1cccc(S(C)(=O)=O)c1 (stereo unspecified)
  -6 | .
CC(=O)c1sc(-c2ccccc2)nc1C
  . | -0.8
NC(=S)c1ccccn1
  1 | .
CN1C2CCC1CC(OC(c1ccccc1)c1ccccc1)C2 (stereo unspecified)
  . | 0.2
c1ccc(-c2cc(N3CCCC3)n3cnnc3n2)cc1
  -2 | 0.2
O=S(=O)(c1ccc(-c2cc(C(F)(F)F)no2)s1)N(CCN1CCOCC1)Cc1ccco1
  3 | .
O=C(CSCc1ccccc1)Nc1ccccc1C(=O)NCc1ccccc1
  1 | -0.6
O=C(O)c1ccc(-c2ccc(/C=N/N3C(=O)C4C(C3=O)C3C=CC4C34CC4)o2)cc1 (stereo unspecified)
  5 | -6.1
COc1cccc(CN2CCCCC2C(=O)O)c1 (stereo unspecified)
  4 | -2.4
CCOC(=O)N1CCN(C(=O)c2cc3cccnc3n(Cc3ccccc3)c2=O)CC1
  -8 | .
COc1ccc(C2Nc3ccccc3C(=O)N2Cc2ccccc2)cc1CSc1ccccn1 (stereo unspecified)
  . | 1.9
CCN(c1ccc(F)cc1)S(=O)(=O)c1cccc2nsnc12
  12 | 0.9
CC(C)NS(=O)(=O)Cc1ccccc1C#N
  -6 | .
CNc1c(NS(=O)(=O)c2cccc(C#N)c2)c(=O)oc2ccccc12
  -36 | .
CC1(C)COC(c2cccn2Cc2ccccc2)=N1
  13 | .
Cc1coc2cc3oc(=O)c(CC(=O)N4CCCC4)c(C)c3cc12
  -22 | .
N#Cc1ccccc1S(=O)(=O)N1CCN(C(=O)CCc2cccs2)CC1
  -9 | .
CCOC(=O)C1=C(C)Nc2ccccc2N=C1NC(=O)C1CCN(S(=O)(=O)c2ccccc2)CC1
  -2 | .
OC1(c2ccc(Cl)cc2)CCNCC1
  . | -1.0
CCOC(=O)c1cc2c(=O)n3ccccc3nc2n(Cc2ccco2)c1=NC(C)=O
  17 | 1.2
O=C(CSc1cn(CC(=O)N2CCOCC2)c2ccccc12)N1CCOCC1
  -2 | 0.9
Cc1onc(-c2ccccc2)c1C(=O)N1CCSC1=NCc1ccccc1
  -5 | .
O=C(Nc1cccnc1)c1nn2c(C(F)(F)F)cc(-c3ccc(F)cc3)nc2c1Cl
  . | 2.2
CCOC(=O)N1CCC(N2C(=O)c3ccccc3C2=O)CC1
  8 | .
COc1ccccc1/C=[N+]1\N=C([O-])C(NC(=O)c2cccc(C)c2)C1c1ccc(Cl)cc1 (stereo unspecified)
  7 | -2.3
Cc1ccc(NC(=S)N2CCn3c4c(c(=O)c5cc(C)ccc53)CCC42)cc1 (stereo unspecified)
  8 | -0.2
COc1cc2c(cc1OC)C(C)N(C(=O)CSCC(=O)O)CC2 (stereo unspecified)
  . | -1.7
C=CCN(C(=O)c1cc2ccccc2o1)C1(C(=O)Nc2ccc(F)cc2)CCN(C(C)=O)CC1
  15 | .
COC(=O)COc1ccc(/C=C2\C(=O)NC(=O)N(c3ccc(C(C)C)cc3)C2=O)cc1OC
  . | 0.5
Cc1cc(C)n(C(C)CC(=O)O)n1 (stereo unspecified)
  8 | -7.0
CCn1c(SC)nnc1C1CCN(C(=O)NC2CCCCC2)CC1
  14 | -0.5
CCOC(=O)C1CCCN(C(=O)COc2ccc(C)c(C)c2)C1 (stereo unspecified)
  -15 | -0.4
O=C1C2C3C=CC(C3)C2C(=O)N1c1cccc2ccccc12 (stereo unspecified)
  3 | .
O=C(COC(=O)CCc1ccccc1)Nc1ccc2c(c1)OCCO2
  11 | .
Cn1cnnc1-c1cccc(NC(=O)C(c2ccccc2)c2ccccc2)c1
  10 | -1.4
COc1ccc(N2CCN(CC(O)COC3C4(C)CCC(C4)C3(C)C)CC2)cc1 (stereo unspecified)
  10 | .
Cc1ccc(-c2ccc(CCC(=O)O)n2NC(=O)c2ccco2)cc1
  16 | -1.0
CCC(Sc1nc2ccccc2s1)C(=O)Nc1cc(C)on1 (stereo unspecified)
  -4 | 1.8
c1cc(CN2CCOCC2)ccc1CN1CCOCC1
  21 | -2.2
CCCCCc1ccc(C(C)N)cc1 (stereo unspecified)
  . | -0.2
Fc1ccc(-c2nnc3n2N=C2CCCCC2S3)cc1 (stereo unspecified)
  13 | .
COc1ccc(C2=NOC(C(=O)N3CC4(C)CC3CC(C)(C)C4)C2)cc1OC (stereo unspecified)
  5 | -1.9
COc1ccc2oc(=Nc3ccccc3)c(C(N)=O)cc2c1
  12 | .
CCN(CC)S(=O)(=O)c1ccc(NC(=O)c2cccc3c2C(=O)N(CCOC)C3)cc1
  16 | .
N#CC(C#N)=CN1CCCCC1
  -2 | .
Cc1[nH]ncc1CNC(=O)c1ccc(NC(=O)C2=CSCCO2)cc1
  4 | .
CC1(C)COC2(CCC(=O)CC2)OC1
  . | -2.2
COc1ccc(COCC(O)CN2CCCC(C(F)(F)F)C2)cc1 (stereo unspecified)
  -5 | .
C/C=C1\CC(C)(CC)C(C#N)(C#N)C(N)=C1C#N (stereo unspecified)
  9 | -7.4
O=S1(=O)CCN(Cc2ccc(-n3cccn3)cc2)CC1
  . | 1.1
Cc1ccc2cc(S(N)(=O)=O)ccc2n1
  7 | -2.0
COc1ccc(C(NC(=O)C2CC=CCC2C(=O)O)c2ccccc2)cc1 (stereo unspecified)
  7 | -1.6
CCCNC(=O)Cn1c(C(=O)OC)ccc1-c1ccco1
  10 | 0.0
COc1ccc(C(=O)CS(=O)(=O)c2ccc3c(c2)OCCO3)cc1OC
  -9 | .

# Remaining list, next part.
# Below each compound – S aureus helic | MgrA DNA FP
CCC(=O)n1c2c(c3ccccc31)Nc1ccccc1N2
  9 | -0.5
CCC(=O)N(Cc1ccc(OC)cc1)C1CC(=O)N(c2ccc(OC)cc2)C1=O (stereo unspecified)
  18 | 1.5
Cn1c(N)c(C(=O)c2ccc(Cl)c(S(=O)(=O)N3CCCCCC3)c2)c(=O)n(C)c1=O
  0 | .
O=C(C1c2ccccc2Oc2ccccc21)N1CCc2ccccc21
  -9 | 2.6
CNC(=S)N/N=C(\C)c1cccc([N+](=O)[O-])c1
  . | 0.1
O=C(CSc1nnc(NC(=O)C2CC2)s1)Nc1ccccc1F
  0 | 4.5
CC(C)OC(=O)C1C(=O)CC(C)(O)C(C(=O)OC(C)C)C1c1ccccc1 (stereo unspecified)
  23 | .
Cc1cc(NC(=O)CCN2C(=O)/C(=C\c3ccccc3F)SC2=S)no1
  -13 | .
O=C(O)c1nc(N2CCOCC2)ncc1Cl
  24 | .
O=C(CCSc1nnc2c(n1)[nH]c1ccccc12)N1CCOCC1
  -3 | 5.1
c1ccc(NCn2cncn2)nc1
  6 | 0.1
c1ccc2c(c1)CCCN2Cc1nnc2n1CCCCC2
  -7 | 4.3
Cc1c(NNc2cc3c(c([N+](=O)[O-])c2C)C(C)(C)CC3(C)C)cc2c(c1[N+](=O)[O-])C(C)(C)CC2(C)C
  . | 0.4
CCN(CC)CC(O)CN1CCn2c3c(c4cc(C)ccc42)CCCC31 (stereo unspecified)
  15 | .
Cn1c(=O)c2cc(C(=O)NCC3CCCO3)sc2c2ccc(Cl)cc21 (stereo unspecified)
  19 | -1.1
COc1ccc(C(=O)c2ccc(OC)cc2O)c(O)c1
  -5 | .
CCC(=O)Nc1nc2ccc(S(C)(=O)=O)cc2s1
  15 | -4.1
COc1cc2c(cc1OC)C(NNC(=O)C(F)(F)C(F)F)=NC(C)(C)C2
  12 | .
Clc1ccc(Cc2ccc(Cl)nn2)cc1
  . | 2.7
CC(=O)Oc1ccc(C(=O)c2ccc(OC(C)=O)cc2)cc1
  17 | -1.1
N#Cc1ccccc1NC1=CC(=O)CCC1
  6 | 5.7
Cc1cc(C)nc(Nc2ncc(O)n2-c2ccc(Cl)c(Cl)c2)n1
  10 | -0.8
Cc1ccc2nc(CN(C)Cc3c(F)cccc3Cl)cc(=O)n2c1
  -11 | .
COc1ccc(-n2nc(C(=O)NCC(=O)NCc3ccccc3OC)c3ccccc3c2=O)cc1
  4 | -0.8
CCC(CO)NS(=O)(=O)c1c(C)nc2sccn2c1=O (stereo unspecified)
  6 | .
COCCn1c(N)c(C(=O)NS(=O)(=O)c2ccc(C)cc2)c(=O)[nH]c1=O
  5 | .
CS(=O)(=O)Nc1cc(Cl)c(O)c(Br)c1
  -38 | .
Cc1cc(C(F)(F)F)c2c(C)nn(-c3ccccc3)c2n1
  -14 | -1.2
CCCn1c(=O)cc(N)n(-c2ccccc2C)c1=O
  -8 | .
O=C(O/N=C/c1ccc2c(c1)OCO2)c1ccc(Cl)cc1
  . | -1.8
O=C(C1CCCCC1)N1CCC(O)(c2ccc(Cl)cc2)CC1
  . | -1.7
O=C(CN1CC(c2ccccc2)CC1=O)OCc1cccc(Br)c1 (stereo unspecified)
  5 | .
CN(C)S(=O)(=O)N(C)c1ccc(O)cc1
  -4 | 2.3
O=C1CC(C(=O)NCCc2ccccc2)C2(CCCCC2)O1 (stereo unspecified)
  17 | -0.8
O=c1[nH]c(=S)[nH]nc1-c1ccc(F)c(F)c1
  9 | .
COC(=O)c1ccccc1-n1cnnn1
  9 | .
C(=C\c1ccco1)/C1=NN(Cc2ccccc2)CC1
  . | -2.9
O=C(CSc1cn[nH]n1)Nc1ccccc1
  21 | 7.9
O=S(=O)(c1cccs1)N1CCC(C(c2ccccc2)c2ccccc2)CC1
  . | -1.0
CCn1cc(C(=O)Nc2cccc(OC)c2)c2cc(OC)c(OC)cc2c1=O
  14 | 0.8
COc1ccc2cc3c(N)nn(C(=O)CSc4ccncc4)c3nc2c1
  14 | .
CC(=O)NC12CC3CC(C1)CC(C(=O)OCC(=O)Nc1ccccc1C(=O)NC1CC1)(C3)C2
  -6 | .
CC1(C)C2CCC1(CS(=O)(=O)NCc1ccncc1)C(=O)C2 (stereo unspecified)
  4 | 5.2
FC(F)(F)c1ccnc(N2CCCN(c3ncnc4scc(-c5ccccc5)c34)CC2)n1
  . | 3.2
Cc1cc(C)cc(N2C(=O)C(C)SC23CCCCC3)c1 (stereo unspecified)
  6 | -3.0
Cc1ccc2cc(C#N)c(N3CCCN(S(=O)(=O)c4ccccc4)CC3)nc2c1
  8 | 0.7
O=C(CNC(=S)N(Cc1ccccc1F)C1CCCCC1)N1CCc2ccccc21
  14 | 1.8
Cn1nc(C(=O)N2CCCc3ccccc32)c2ccccc2c1=O
  -1 | -5.0
CCN(CC)S(=O)(=O)c1cccc(C(=O)N/N=C/c2ccc(OC(=O)c3ccco3)c(OC)c2)c1
  4 | .
O=C(O)c1ccc(N2C(=O)c3[nH]nc(-c4ccccc4)c3C2c2cccnc2)cc1 (stereo unspecified)
  8 | .
CCC(Sc1nnc2c3ccccc3n(C)c2n1)C(=O)Nc1ccccc1C#N (stereo unspecified)
  -4 | -1.1
CC(=O)O/N=C(\N)Cc1ccc(-c2csnn2)cc1
  14 | .
CC(NC(=O)CN1CSCC1=O)C12CC3CC(CC(C3)C1)C2 (stereo unspecified)
  11 | .
CC(C)(C)c1nc(SCc2nc(-c3cccc(-n4cccc4)c3)no2)n[nH]1
  . | -3.2
CC1(C)SC(c2ccc(Cl)cc2Cl)NC1C(=O)O (stereo unspecified)
  . | -0.3
O=C(NCc1ccccc1)c1cc2c(s1)-c1ccccc1SC2
  16 | 0.8
C=CCNC(=O)c1cc2c(C)nn(-c3ccc(F)cc3)c2s1
  -14 | .
CN(C)C(CNC(=O)Cc1c[nH]c2ccccc12)c1ccco1 (stereo unspecified)
  -11 | .
COc1ccc(C(=O)OCC(=O)c2ccccc2)cc1
  . | -2.6
CNC(=S)C12CC3CC(CC(C3)C1)C2
  . | -1.4

# Entries of single compounds, looked up by structure. Screens in order: S aureus helic	MgrA DNA FP
# `CC(=O)O/N=C(\N)Cc1ccc(-c2csnn2)cc1` in the list: 14	.
# `Cc1cc(C)cc(N2C(=O)C(C)SC23CCCCC3)c1` (stereo unspecified) in the list: 6	-3.0
# `CC1(C)C2CCC1(CS(=O)(=O)NCc1ccncc1)C(=O)C2` (stereo unspecified) in the list: 4	5.2
# `FC(F)(F)c1ccnc(N2CCCN(c3ncnc4scc(-c5ccccc5)c34)CC2)n1` in the list: .	3.2
# `CC(C)(C)c1nc(SCc2nc(-c3cccc(-n4cccc4)c3)no2)n[nH]1` in the list: .	-3.2

# Continuation.
# Below each compound – S aureus helic | MgrA DNA FP
OC(CN1CCCC1)Cn1ccc(C(F)(F)F)n1 (stereo unspecified)
  . | -0.6
O=S(=O)(c1ccccc1)c1ccc(I)cc1
  3 | -0.5
COc1cc(/C=C2/SC(=Nc3ccccc3Cl)NC2=O)cc(OC)c1OC
  . | -0.7
O=C(Nc1ccc(N2CCOCC2)cc1)c1ccc2c(=O)n3c(nc2c1)CCC3
  1 | .
C#CCSc1nc(C)cc(C(=O)OCC)c1C#N
  -8 | .
Cc1ccc2oc(-c3ccc(Cl)cc3)nc2c1
  . | -0.6
Cc1ccc(-c2nnc(NC(=O)c3cc4c([nH]c5ccccc54)c(C)n3)s2)cc1
  8 | -0.4
N#CC1=C(SCC(=O)Nc2ccc(Br)cc2)NC(=O)C(C#N)C12CCCCC2 (stereo unspecified)
  . | 0.0
OC1CCCc2c(OCc3coc(-c4cccs4)n3)cccc21 (stereo unspecified)
  -10 | .
CN(Cc1ccccc1)C(=O)c1cc2c(=O)oc3ccccc3c2s1
  18 | .

# Some of the compounds tested; rates above refer to the full screens.
